Menin-MLL FL inh: qHTS Assay for Inhibitors Targeting the Menin-MLL Interaction in MLL Related Leukemias: Competition With Fluorescein Labeled MLL-derived Peptide; Fluorescence polarization, fluorescein-MLL peptide displacement from menin; FP activity change, % at 61.4 µM; 290,000 tested, under 10 active; AID 1766, 2009; inconclusive = falling polarisation curve, or a change in total fluorescence; inactive = total fluorescence flat and polarisation flat or rising; no compound was filed as active; the % refers to the polarisation; negative = inhibition;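 note: % of control where 0% means no effect; inhibitors lower the polarisation; unlabelled MLL peptide was the positive control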
CtBP-E1A inh: qHTS Assay for Inhibitors of the CtBP/E1A Interaction. AlphaScreen GST-E1A/His-CtBP binding, 1536-well; stronger effect = lower value; control for the full effect not named in the record. activity change, % (test concentration not listed). hit rate 0.49% among 340,000; in the data active means activity change below about -65%; inconclusive means about -30% to -65%; inactive means above about -30%; note: % is set by controls: 0 for no effect and ±100 for the full control effect; compound concentration not given in the record
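Steps: dispense buffer (Tris pH 8.0, NaCl 300 mM, TCEP 1 mM, BSA, Tween 20); add 5X protein mix (GST-E1A, His-CtBP, 125 nM each); pin 23 nL compound; 2 h at 37 °C, dark; add 5X beads (50 ug/mL); 1 h; read.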
Sfp inh: qHTS Assay for Inhibitors of Bacillus subtilis Sfp phosphopantetheinyl transferase (PPTase); Biochemical Sfp PPTase activity, qHTS; AID 1490, 2009; Potency, µM, inactives show max response, negative = inhibition, actives largely listed as inhibitors; 4'-phosphopantetheinyl transferase ffp (Bacillus subtilis), Q9F4F7; hit rate 3.5% among 310,000; active = well fitted inhibition curve with a large enough effect; inconclusive = small, poorly fitted or top-dose-only effect, or another doubt; inactive = no such curve, though single readings can be large or run the other way;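 note: the enzyme is Sfp with the accession as filed and its product quenches rhodamine fluorescence; potency is the fitted concentration of half-maximal effect; 0% = enzyme reaction without inhibitor and -100% = no enzyme wells; top concentration of the series not given in the record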
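Fluorescence-quenching assay with 15 nM Sfp, 5 uM rhodamine-CoA and 12.5 uM BHQ-2-labelled ybbR peptide in pH 7.6 Hepes/MgCl2 buffer. Enzyme was pre-incubated with compound for 15 min at room temperature. Rate was taken from the 30-min fluorescence change (525/598 nm).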
gsp ag: qHTS for Agonist of gsp, the Etiologic Mutation Responsible for Fibrous Dysplasia/McCune-Albright Syndrome: qHTS. gsp mutant cells, cAMP HTRF, 30 min; control for the full effect not named in the record. Potency, µM (highest dose often 76.9 µM), for inactives: top-dose activation (cAMP increase), actives largely listed as activators. hit rate 0.13% among 340,000; active = well fitted activation curve with a large enough effect; inconclusive = small, poorly fitted or top-dose-only effect, or another doubt; inactive = no such curve, though single readings can be large or run the other way; cell line not stated here;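 note: phosphodiesterase inhibitor Ro 20-1724 added with compounds to block cAMP breakdown; potency is the fitted concentration of half-maximal effect; nearly all actives have a fitted effect of over 60% in size; about a fifth of the inactives were tested at one dose only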
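Cells stably selected in G418 were plated at 2000/well, grown 16-24 hr, then given compounds in DMSO with the PDE inhibitor […] (300 uM solution added) for 30 min at 37C; cAMP was read by HTRF.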
gsp antagonist: qHTS for Antagonists of gsp, the Etiologic Mutation Responsible for Fibrous Dysplasia/McCune-Albright Syndrome: qHTS; hit rate 0.4% among 340,000; gsp-mutant cells, cAMP HTRF, 30 min; control for the full effect not named in the record; Potency, µM (titrated, usually from 76.9 µM), for the others: at the highest dose activity change, negative = inhibition, most hits filed as inhibitors; AID 624288, 2012; active = falling curve of any shape with a large fitted effect; inconclusive = falling curve, mostly with a smaller effect; inactive = flat or rising curve; cell line not stated here;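 note: intracellular cAMP measured with PDE inhibitor Ro 20-1724 present during compound exposure; potency is the fitted concentration of half-maximal effect; % is set by controls: 0 for no effect and ±100 for the full control effect; nearly all actives have a fitted effect of over 65% in size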
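Measurement of cellular cAMP by homogeneous time-resolved fluorescence following a 30 min compound exposure at 37C. The PDE inhibitor […] was present throughout; the assay buffer was DPBS with 0.05% BSA and 0.005% Tween 20.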
ClpP mod: qHTS Assay for Activators of ClpP. purified B. subtilis ClpP, FRET peptide cleavage, 20 min. Potency, µM (doses to about 57.5 µM), inactives show at the top dose activity change, negative = active. hit rate 1.9% among 340,000; active = well fitted falling curve with a large enough effect; inconclusive = small, poorly fitted or top-dose-only effect; inactive = no such curve, though single readings can be large or run the other way; note: potency is the fitted concentration of half-maximal effect; the source files actives as falling curves though it sought activators and does not explain the sign; nearly all actives have a fitted effect of over 65% in size; many hits overshoot -100%
Target sequence (P80244 whole entry, looked up): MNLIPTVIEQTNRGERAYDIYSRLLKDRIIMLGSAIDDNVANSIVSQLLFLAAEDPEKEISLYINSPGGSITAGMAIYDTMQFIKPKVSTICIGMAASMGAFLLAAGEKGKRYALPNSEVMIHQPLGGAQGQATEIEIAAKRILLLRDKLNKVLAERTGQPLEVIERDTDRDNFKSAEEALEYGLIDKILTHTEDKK
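ClpP 10 microg/mL final, pH 8 Tris/KCl buffer with BSA, glycerol, Tween-20; compound pinned in; FRET-FV substrate; RT 20 min; Ex320/Em430; ΔFRET vs ADEP 5.8 microM, DMSO, no enzyme.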
TRPV1 PAM: HTS Assay for Compounds that Act as Potentiators of the Vanilloid Receptor 1 | TRPV1-expressing cells, Fluo-8 calcium influx, capsaicin EC20 potentiation; host cell line not named in the record; control for the full effect not named in the record | Transient receptor potential cation channel subfamily V member 1 (Homo sapiens), Q8NER1 | hit rate 0.02% among 320,000 | potentiation, % at 8.33 µM | AID 540277, 2011; active means potentiation above 80%; inconclusive means 30% to 80%; inactive means below 30%; note: 0% is about no effect
Target sequence (Q8NER1 whole entry, looked up): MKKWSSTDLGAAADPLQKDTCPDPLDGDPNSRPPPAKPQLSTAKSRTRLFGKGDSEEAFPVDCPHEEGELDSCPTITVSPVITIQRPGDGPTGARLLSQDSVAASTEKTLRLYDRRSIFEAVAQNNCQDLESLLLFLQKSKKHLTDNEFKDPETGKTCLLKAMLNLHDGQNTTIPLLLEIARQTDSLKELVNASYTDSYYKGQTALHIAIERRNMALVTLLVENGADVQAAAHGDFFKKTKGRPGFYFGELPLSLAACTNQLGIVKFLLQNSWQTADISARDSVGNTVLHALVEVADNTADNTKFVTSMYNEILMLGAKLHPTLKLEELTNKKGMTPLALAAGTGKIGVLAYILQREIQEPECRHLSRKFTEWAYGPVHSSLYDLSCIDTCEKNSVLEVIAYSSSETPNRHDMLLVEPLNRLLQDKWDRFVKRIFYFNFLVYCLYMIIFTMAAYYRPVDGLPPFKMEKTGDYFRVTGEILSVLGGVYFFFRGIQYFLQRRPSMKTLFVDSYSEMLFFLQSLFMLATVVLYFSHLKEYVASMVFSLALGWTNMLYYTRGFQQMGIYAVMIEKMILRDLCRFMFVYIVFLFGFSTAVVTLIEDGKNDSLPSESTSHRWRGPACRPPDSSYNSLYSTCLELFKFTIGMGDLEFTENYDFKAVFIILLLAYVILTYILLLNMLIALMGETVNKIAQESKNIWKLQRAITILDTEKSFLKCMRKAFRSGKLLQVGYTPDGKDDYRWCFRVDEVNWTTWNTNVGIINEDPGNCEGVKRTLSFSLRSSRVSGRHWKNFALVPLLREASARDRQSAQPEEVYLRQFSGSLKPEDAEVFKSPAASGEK
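Fluo-8 calcium influx in TRPV1-expressing cells, kinetic read (ex 480/em 520 nm). Compound added and read 3 min for agonist activity, followed by capsaicin at EC20 final and 2 min further read for enhancement.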
* marks the source's active call; other numbers are inactive results; ? = inconclusive; . = not tested or not shown; & = joins results of further samples; [ ] = another dose, or the depositor's remark.

Start of the data: the first 2 records, to show the layout:
nr	Structure	Menin-MLL FL inh	CtBP-E1A inh	Sfp inh	gsp ag
1	CC(=O)Nc1ccc(Nc2nc(C)c([N+](=O)[O-])c(Nc3ccc(NC(C)=O)cc3)n2)cc1	-0.3	-1	6%	2%
2	Nc1cc(N)nc(SCCN2CCCCC2)n1	5.3	-2	22%	26%

nr	gsp antagonist	ClpP mod	TRPV1 PAM
1	14%	0.1%	-4
2	3%	4.0%	2

Main list, from the start:
nr	Structure	Menin-MLL FL inh	CtBP-E1A inh	Sfp inh	gsp ag
1	CC(=O)Nc1ccc(Nc2nc(C)c([N+](=O)[O-])c(Nc3ccc(NC(C)=O)cc3)n2)cc1	-0.3	-1	6%	2%
2	Nc1cc(N)nc(SCCN2CCCCC2)n1	5.3	-2	22%	26%
3	O=C(NCc1ccco1)C(c1ccc(F)cc1)N(CC1CCCO1)C(=O)Cn1nnc2ccccc21 (configuration not stated)	-2.3	11	-11%	22%
4	Oc1ccc(-c2nc(-c3ccc(F)cc3)c(-c3ccncc3)[nH]2)cc1	3.9&1.3	3	-25%&3%&-22%	.
5	CCOC(=O)C1CCN(C(=O)CC2C(=O)N(Cc3ccccc3)C(C)c3nc4ccccc4n32)CC1 (configuration not stated)	3.2	-12	26%	0%
6	CN(C)S(=O)(=O)c1cccc(NC(=O)COC(=O)c2ccc3c(c2)OCO3)c1	-0.1	8	1%	-17%[15.4 µM]
7	CNC(=O)c1c[nH]c2ccc(S(=O)(=O)Nc3ccccc3F)cc2c1=O	5.1	?	14%	?
8	CCOc1ccccc1NC(=O)CSc1n[nH]c(N)n1	.	4	2%	3%
9	Cc1ccc2c(Cl)cc(Cl)c(OCC(=O)O)c2n1	2.3	-3	25%	21%[15.4 µM]
10	O=C(NCCCN1CCCC1)Nc1ccc(F)cc1	2.5	0	19%	?
11	CCC1Oc2ccc(C)cc2N(CC(=O)N2CCCC2)C1=O (configuration not stated)	-2.3	.	9%	-2%
12	COc1ccc(/C=N/Nc2nc(N3CCCCC3)nc(N3CCCCC3)n2)cc1[N+](=O)[O-]	6.4	1	-1%	-25%

nr	gsp antagonist	ClpP mod	TRPV1 PAM
1	14%	0.1%	-4
2	3%	4.0%	2
3	2%	0.7%	?
4	-5%	-16%&3.6%	0
5	-15%	-2.4%	-13
6	-15%	1.0%	-1
7	3%	-11%	-4
8	2%	0.3%	11
9	-16%	-1.8%	-3
10	10%	1.1%	4
11	2%	-0.5%	4
12	?	1.1%	-4

(cont.)
nr	Structure	Menin-MLL FL inh	CtBP-E1A inh	Sfp inh	gsp ag
13	CCC(=O)N/N=C/c1ccc(OS(=O)(=O)c2ccccc2)cc1	0.0	-4	16%	-15%
14	Cc1nn(C(C)C(=O)N2CCCC2)c(=O)c2nn(-c3ccccc3)c(C)c12 (configuration not stated)	.	-7	14%	1%
15	O=C(C1=C[C@@H](c2coc3ccccc3c2=O)C[C@@H](OCc2ccc(CO)cc2)O1)N1CCN(Cc2ccccc2)CC1	-2.8	-9	3%	.
16	CCN(CC)CCN1C(=O)C(=O)/C(=C(/O)c2c(C)[nH]c(C(=O)OC)c2C)C1c1ccc(OC)cc1 (configuration not stated)	-1.2	-4	-6%	14%
17	CCOC(=O)C1CCN(C(=O)c2ccc(OCC(=O)Nc3cccc(C(F)(F)F)c3)c(OC)c2)CC1	.	-14	.	-13%[15.4 µM]
18	COc1ccc(CN(CC2CCC(C(=O)O)CC2)C(=S)Nc2cc(C)cc(C)c2)cc1 (configuration not stated)	-0.7	0	-29%	-57%[inhibitor]
19	Cc1ccccc1C(=O)NCC(=O)OC(C)C(=O)NCc1ccco1 (configuration not stated)	.	-8	.	-3%[15.4 µM]
20	Cc1cccc(/C=C2/S/C(=N/N=C3\CC4CCC3(C)C4(C)C)NC2=O)c1 (configuration not stated)	-0.9	-8	7%	0%
21	Clc1ccc(-c2nsc(N3CCOCC3)n2)c(Cl)c1	1.0	7	8%	5%[15.4 µM]
22	CCC1(C(=O)c2ccccc2)C(c2ccc([N+](=O)[O-])cc2)C1(C(=O)OC)C(=O)OC (configuration not stated)	0.2	0	1%	-20%
23	Cc1c2cnn(-c3ccccc3)c(=O)c2c(C)n1CCCC(=O)N1CCN(C2CCCCC2)CC1	3.2	-5	-3%	-4%[15.4 µM]
24	O=C(NCC1CCCO1)c1ccccc1-c1nc(-c2ccc(Cl)cc2)no1 (configuration not stated)	4.3	4	9%	1%

nr	gsp antagonist	ClpP mod	TRPV1 PAM
13	11%	0.4%	8
14	-1%	-6.2%	-7
15	-16%	-3.1%	4
16	9%	-4.0%	3
17	-28%	.	11
18	-2%	.	-4
19	-1%	-3.3%	-4
20	-5%	-2.0%	-11
21	-6%	.	-9
22	5%	-1.2%	0
23	-8%	.	-2
24	-5%	2.5%	-17

More results.
nr	Structure	Menin-MLL FL inh	CtBP-E1A inh	Sfp inh	gsp ag
25	CSc1nc(Sc2ccc(Cl)cc2)c2ccccc2n1	-4.0	9	-7%	?
26	COc1ccc(C(O)P(=O)(OC(C)C)c2ccc(N(C)C)cc2)c(OC)c1 (configuration not stated)	-1.2	.	12%	?
27	Cc1ccc(C(=O)O)cc1NC(=O)C1CCCN1S(=O)(=O)c1cccc2nsnc12 (configuration not stated)	-2.0	-3	-7%	?
28	CCOC(=O)c1c(C)oc2c1c(C=NCCO)c(O)c1ccccc12	?	26	50µM*	0%[15.4 µM]
29	COCc1ccc(CN2CCC(CO)(CC3CCCCO3)CC2)o1 (configuration not stated)	-5.8	6	-5%	7%
30	CC(C)(C)OC(=O)C[C@H]1C/C=C\C[C@H](CC(=O)NCCO)C(=O)NC[C@@H](c2ccccc2)OC1=O	.	.	.	?
31	Cc1ccc(C)c(S(=O)(=O)N/N=C/c2ccc(N3CCOCC3)cc2)c1	?	1	3%	1%
32	COc1ccc(C/C(N)=N/OC(=O)c2ccco2)cc1OC	2.0	-3	10%	13%[15.4 µM]
33	Fc1ccc(NC(=S)Nc2ccc(Br)cc2)cc1	3.8	-5	7%	6%[15.4 µM]
34	O=C(O)c1ccccc1SC1CC(=O)N(C2CCCCC2)C1=O (configuration not stated)	3.3	2	6%	7%
35	O=C(c1ccccn1)C1CCCN(Cc2cn[nH]c2-c2cc3ccccc3o2)C1 (configuration not stated)	-0.8	.	1%	-16%
36	O=C(C1CCCN1C(=O)c1cccs1)N1CCN(Cc2ccc3c(c2)OCO3)CC1 (configuration not stated)	3.6	3	13%	-2%

nr	gsp antagonist	ClpP mod	TRPV1 PAM
25	14%	?	3
26	1%	-6.5%	8
27	9%	-0.7%	-6
28	.	.	-9
29	9%	.	-2
30	7%	1.1%	.
31	-2%	-0.7%	-4
32	9%	.	6
33	-1%	28µM*	5
34	2%	-2.6%	28
35	5%	0.2%	2
36	0%	0.4%	9

Other structures follow.
nr	Structure	Menin-MLL FL inh	CtBP-E1A inh	Sfp inh	gsp ag
37	O=C(COC(=O)c1ccc(Br)o1)NCc1ccco1	.	0	.	-63%[inhibitor]
38	COc1ccc(C(=O)OCC(=O)N2CCN(C(=O)c3ccco3)CC2)c(OC)c1OC	.	4	.	4%
39	Cc1ccc(C)c(N=Cc2c(O)c3ccccc3oc2=O)c1	-0.2	-4	10%	6%[15.4 µM]
40	CC(=O)c1cccc(S(=O)(=O)N(CCCO)Cc2cc3ccc(C)cc3[nH]c2=O)c1	13	50	17%	10%
41	Cc1nc(N/N=C/c2ccccc2)nc(N(C)c2ccccc2)c1[N+](=O)[O-]	2.1	0	2%	-33%[inhibitor]
42	CCCNC(=O)N(C)C[C@H]1Oc2cc(Br)ccc2S(=O)(=O)N([C@@H](C)CO)C[C@@H]1C	.	3	.	42%
43	CC(c1cccs1)N(Cc1ccco1)C(=S)Nc1ccc(F)c(Cl)c1 (configuration not stated)	-5.6	4	18%	19%
44	Cc1cc(NC(=O)COC(=O)COc2cccc3c2OC(C)(C)C3)no1	3.2	9	10%	-9%
45	O=C(CN1CCN(C(=O)c2ccccc2)CC1)Nc1cccc(S(=O)(=O)N2CCCC2)c1	.	-2	.	6%
46	COC(=O)c1ccccc1NC(=O)C12CC3CC(C1)CC(n1cnc(Cl)n1)(C3)C2	-0.2	2	-4%	-13%
47	Cc1onc(-c2c(F)cccc2Cl)c1C(=O)NCc1ccccc1	-8.2	-5	15%	8%
48	Cc1ccc(/C=N/NC(=O)c2ccccn2)o1	0.3	-26	56µM*	5%[15.4 µM]
49	O=C1CCC/C(=N/NC(=O)c2ccc(CN3c4cccc5cccc(c45)S3(=O)=O)cc2)C1	5.8	-5	-11%	-4%
50	Cc1ccccc1N(C(=O)Cn1nnc2ccccc21)C(C(=O)NCc1ccco1)c1ccncc1 (configuration not stated)	5.1	-9	13%	3%
51	Cc1nnn(C23CC4CC(CC(CC(=O)Nc5ccc(C)c(Cl)c5)(C4)C2)C3)n1	5.2	-2	7%	0%

nr	gsp antagonist	ClpP mod	TRPV1 PAM
37	4%	-0.9%	.
38	.	-1.1%	.
39	0%	-0.4%	-8
40	-16%	-4.7%	?
41	7%	1.0%	0
42	.	1.1%	.
43	8%	-1.4%	-2
44	-7%	-4.0%	-4
45	-14%	-1.4%	21
46	2%	-24%	5
47	-4%	-0.5%	-15
48	6%	-5.0%	17
49	3%	-21%	4
50	-1%	-1.2%	10
51	-30%	1.3%	1

Assay outcomes from PubChem BioAssay.

The order is random; any-hit rate near 5.3%.
